VACV mCherry inh = vaccinia inhibition (mCherry reporter). Potency, µM (highest dose often 36.5 µM), inactives show at the top dose activity change, negative = inhibition, usual class: inhibitors. 0.63% of 310,000 active. Vaccinia virus mCherry reporter infection, fluorescence; about a quarter of the inactives have no number. AID 720579; active = well fitted inhibition curve with a large enough effect; inconclusive = small, poorly fitted or top-dose-only effect; inactive = no such curve, though single readings can be large or run the other way; tested in A549 cells; also: nearly all actives have a fitted effect of over 35% in size; inactives centre near -10
VACV Venus inh = vaccinia inhibition (Venus reporter). Vaccinia virus Venus reporter expression, fluorescence. Potency, µM (highest dose often 36.5 µM), without a hit: at the top dose activity change, negative = inhibition, hits mostly inhibitors. 0.46% of 330,000 active. AID 720580; active means well fitted inhibition curve with a large enough effect; inconclusive means small, poorly fitted or top-dose-only effect; inactive means no such curve, though single readings can be large or run the other way; tested in A549 cells; also: nearly all actives have a fitted effect of over 30% in size; inactives centre near -10
Starred values were filed as active, the others as inactive; i = inactive; ? = inconclusive; . = no result given; & = joins results of further samples. % is scaled to controls: 0 for no effect and ±100 for the full control effect; potency is read from the fitted curve at half-maximal effect.

SMILES | VACV mCherry inh | VACV Venus inh
COC(=O)C[C@H](NC(=O)Cn1cnc2c(NCc3ccccc3)ncnc21)C(=O)OC | i | 8%
O=C(NCCN1CCCCC1)c1cccc2c1C(=O)c1ccc(N3CCCC3)cc1S2(=O)=O | -1% | 12%
Cc1ccc(Nc2c(-c3ccc(N4CCOCC4)cc3)nc3cccc(C)n23)cc1 | -12% | -9%
Cc1ccc2nc(CN3CCN(S(=O)(=O)c4ccccc4)CC3)oc2c1 | -10% | -6%
O=c1nc(/C=C/c2ccc(O)c(O)c2)oc2ccccc12 | ? | -22%
CCOC(=O)c1cc(-c2ccc(F)cc2)n(CCC(=O)NC2CCC(C)CC2)c1C (configuration not stated) | -10% | -11%
CC(C)COP(=O)(OCC(C)C)C(Nc1ccccc1)c1ccc2c(c1)OCO2 (configuration not stated) | ? | -22%
CC(C)C[C@@]12C(=O)N(c3cccc(Cl)c3)C(=O)N1[C@H](c1ccc(Cl)cc1)[C@@H]1C(=O)N(C3CCCCC3)C(=O)[C@@H]12 | -7% | -14%
Cc1cc(C(=O)OCC(=O)c2ccc(Cl)c([N+](=O)[O-])c2)c2cccc(C)c2n1 | -7% | -1%
COc1ccc(NC(=O)CSc2ncc(-c3ccc(F)cc3)n2Cc2ccco2)cc1 | ? | ?
N=C1SCC(=O)N1Cc1ccccc1 | i | 2%
CN(c1ccccc1)S(=O)(=O)c1ccc2ccccc2c1 | ? | -9%
O=C(NC1CCCC1)c1c[nH]c2ccc(S(=O)(=O)Nc3cccc(C(F)(F)F)c3)cc2c1=O | -3% | -8%
CC(C)(C)c1ccc(C(=O)NCc2nnc(SCC(=O)N3CCCC3)o2)cc1 | -6% | -13%
CNc1nc(-c2ccccc2)cc(C)c1S(C)(=O)=O | -11% | -12%
O=C(Nc1nnc(SCc2ccccn2)s1)C1CC(=O)N(c2ccccc2)C1 (configuration not stated) | -9% | -5%
COC(=O)CCCC1=CC2=CC(=O)C(C)(OC(=O)c3cccs3)C(=O)C2=CN1c1ccc(OC)cc1 (configuration not stated) | i | -12%
CCCN(C(=O)c1ccc(OCC(C)C)cc1)c1c(N)n(Cc2ccccc2)c(=O)[nH]c1=O | -20% | -10%
CCN(CC)CCOC(=O)c1ccc(NC(=O)C2(c3ccccc3)CCCC2)cc1 | -19% | -7%
COc1cc(OC)cc(C(=O)N[C@H](C(=O)OCC(N)=O)C(C)C)c1 | -5% | -6%

Single values from above.
For VACV Venus inh, O=C(NC1CCCC1)c1c[nH]c2ccc(S(=O)(=O)Nc3cccc(C(F)(F)F)c3)cc2c1=O has -8%
For VACV Venus inh, CC(C)COP(=O)(OCC(C)C)C(Nc1ccccc1)c1ccc2c(c1)OCO2 (configuration not stated) has -22%
For VACV Venus inh, CCCN(C(=O)c1ccc(OCC(C)C)cc1)c1c(N)n(Cc2ccccc2)c(=O)[nH]c1=O has -10%

Continued:
SMILES | VACV mCherry inh | VACV Venus inh
O=C(C1CCCO1)N(c1ccc(F)cc1)C1C=CS(=O)(=O)C1 (configuration not stated) | -2% | -3%
CCN(CC)CCN1C(=O)Cn2c(C)c(C)c3cccc1c32 | -19% | -21%
COc1ccccc1CNC(=O)Cc1c(C)c2c(cc(C)c3c(C)coc32)oc1=O | -18% | -16%
Cc1ccc(C)c(OCC(=O)NCC(c2ccco2)N2CCCCC2)c1 (configuration not stated) | -14% | -17%
O=C(Nc1ccccc1C(F)(F)F)c1cc2ccccn2n1 | -1% | 5%
COC(=O)c1cc2occc2n1Cc1ccc(F)cc1Cl | -12% | -8%
CCn1c(SCC(=O)NCc2cccs2)nc2c1c(=O)n(C)c(=O)n2C | i | -6%
CSc1cccc(NC(=O)CSc2nc3ccccc3o2)c1 | -2% | -19%
COc1cccc(CNC(=O)c2cccc(NC3=NC4CS(=O)(=O)CC4S3)c2)c1 (configuration not stated) | -5% | 8%
CCOc1ccc(C2=Nn3c(nnc3-c3ccccn3)SC2)cc1 | ? | -25%
OC(c1cc(C(F)(F)F)nc2c(C(F)(F)F)cccc12)C1CCCCN1 (configuration not stated) | ? | ?
O=C(C1COc2ccccc2O1)N1CCOCC1 (configuration not stated) | . | 1%
CC(C)CNC(=S)NNC(=O)c1nn(C)cc1Cl | i | -14%
Cn1ncc2c(N3CCN(c4ccccc4Cl)CC3)ncnc21 | -9% | -21%
O=C(NCc1ccccc1)C(c1c(F)cccc1Cl)N(C(=O)c1csnn1)C1CC1 (configuration not stated) | ? | -2%
COc1ccc(N2CCN(C3CCCN(C(=O)C4=C(C)OCCO4)C3)CC2)cc1 (configuration not stated) | -10% | -8%
CC(=O)c1nn(-c2ccc(OC(F)(F)F)cc2)nc1Nc1ccc(C)cc1 | -5% | -7%
O=S(=O)(c1ccccc1)C1CC1(c1ccccc1)c1ccccc1 (configuration not stated) | -9% | -13%
CC(C)NC(=O)NC(=O)CSc1ccc(S(=O)(=O)N2CCOCC2)cn1 | i | -23%
CCSc1nnc(C(C)NC(=O)c2ccc(OC)cc2)n1C (configuration not stated) | -5% | -5%
Cc1ccc(S(=O)(=O)CCC(=O)Nc2nccs2)cc1 | . | -4%
CC(=O)N1c2ccccc2C(=O)C1N1CCN(c2ccccc2F)CC1 (configuration not stated) | -10% | -5%
O=C(Nc1cccc2c1CCCC2)N1CCOc2ccc(Cl)cc21 | -8% | -17%
CC(=O)c1ccc(NC(=O)c2ccc3nc(-c4ccco4)c(-c4ccco4)nc3c2)cc1 | -4% | -18%
CC(C)N1CCN(C(=O)c2cnn(-c3nccc(-c4ccc5c(c4)OCO5)n3)c2-c2ccco2)CC1 | ? | -24%
CCn1cc(C(=O)OCc2ccc(F)cc2)c(=O)c2ccc(C)nc21 | -9% | 2%
c1ccc(-c2noc(-c3cccnc3NCc3ccco3)n2)cc1 | -9% | -3%
CCc1sc(-c2cc3ccccc3oc2=O)nc1-c1ccc(C)cc1 | -14% | 6%
COc1ccc(S(=O)(=O)Nc2ccc(-n3cccc3)cc2)cc1 | -6% | -13%
Cc1ccc(-n2nc(C(=O)c3ccccc3)n3c(=O)c(Cc4ccccc4)nnc23)cc1 | ? | ?
Cc1occc1-c1nnc(SCC(=O)Nc2nc3ccccc3s2)o1 | -6% | -2%
Cc1[nH]nc2c1C1(CCN(Cc3ccccc3)CC1)C(C#N)=C(N)O2 | -12% | -8%
O=C(CO/N=C/c1ccccc1Cl)N1CCCc2ccccc21 | i | -13%
COc1cc(C2CC(=O)Oc3cc(C)c(Cl)c(C)c32)cc(OC)c1OC (configuration not stated) | i | -18%
Cc1cc(C)nc(SCc2ccc(C(=O)N/N=C3\CC(C)CC(C)(C)C3)cc2)n1 (configuration not stated) | -13% | -8%
CCCn1c(-c2ccccc2)nc2c(=O)n(C)c(=O)[nH]c21 | . | -6%
COc1c(Cl)cc(Cl)cc1C(=O)Nc1ccc(CN2CCCCC2)cc1 | i | -15%
Cn1c(SCc2ccccc2Cl)nc2c([nH]c3ccccc32)c1=O | -3% | -3%
CCC(C)n1c(SC(C)C#N)nc2ccccc2c1=O (configuration not stated) | -6%&-5% | -19%&-15%
COc1ccc(C)cc1NC(=O)CCNS(=O)(=O)c1cccc2nonc12 | -22% | -4%

Rewritten with two lines to a compound: 5 of the compounds above.
Values run as follows: VACV mCherry inh	VACV Venus inh
> CCSc1nnc(C(C)NC(=O)c2ccc(OC)cc2)n1C (configuration not stated)
    -5%	-5%
> CCOC(=O)c1cc(-c2ccc(F)cc2)n(CCC(=O)NC2CCC(C)CC2)c1C (configuration not stated)
    -10%	-11%
> Cc1occc1-c1nnc(SCC(=O)Nc2nc3ccccc3s2)o1
    -6%	-2%
> c1ccc(-c2noc(-c3cccnc3NCc3ccco3)n2)cc1
    -9%	-3%
> Cc1ccc(C)c(OCC(=O)NCC(c2ccco2)N2CCCCC2)c1 (configuration not stated)
    -14%	-17%

Later entries:
Molecule | VACV mCherry inh | VACV Venus inh
O=C(CSc1nnnn1-c1cccc2c1CCCC2)NC1CCCC1 | -24% | -18%
CC(/C=C/c1ccc2c(c1)OCO2)=N/NC(=O)CNc1ccc(C)cc1 | -13% | -7%
CCOC(=O)Cc1csc(N/N=C/c2ccccc2)n1 | ? | -14%
O=C(NC1CCCc2ccccc21)C1CCN(c2nnc(-n3cccc3)s2)CC1 (configuration not stated) | ? | ?
O=C(O)CCC(C(=O)O)n1c(O)c(C2=c3ccccc3=NC2=O)sc1=S (configuration not stated) | -10% | -3%
CC1Cc2nc(SCC(=O)NCC3CCCO3)n(-c3ccc(F)cc3)c(=O)c2S1 (configuration not stated) | -9% | -1%
c1ccc(OCCSc2nc3ccccc3[nH]2)cc1 | . | -29%
CCOc1ccc(S(=O)(=O)N2CCOCC2)cc1NC(=O)c1ccccc1F | -16% | -26%
CCCCOC1OCN(C2CCCCC2)CC1(C)C (configuration not stated) | -15% | -4%
CC(C)CN(C(=O)CSc1nncn1-c1ccccc1)c1c(N)n(CC(C)C)c(=O)[nH]c1=O | i | -5%
O=C(COc1ccccc1)Nc1ccccc1N1CCN(c2ccc(F)cc2)CC1 | -12% | -9%
COc1ccc(NC(=O)c2cc(C3CCCCN3C(=O)c3cc(F)ccc3C)on2)c(C)c1 (configuration not stated) | 4% | -11%
Cc1cccc(C)c1NS(=O)(=O)c1ccc2c(c1)C(=O)c1ccccc1C2=O | i | -14%
CC(Sc1n[nH]c(N)n1)C(=O)Nc1ccc(Cl)cn1 (configuration not stated) | -10% | -21%
Cc1cccc(OCc2nc(-c3ccc(Br)o3)no2)c1 | -9% | -5%

Given with two lines to a compound: entries from further up
Order of results – VACV mCherry inh | VACV Venus inh
> CC(/C=C/c1ccc2c(c1)OCO2)=N/NC(=O)CNc1ccc(C)cc1
  -13% | -7%
> CCOC(=O)Cc1csc(N/N=C/c2ccccc2)n1
  ? | -14%
> O=C(NC1CCCc2ccccc21)C1CCN(c2nnc(-n3cccc3)s2)CC1 (configuration not stated)
  ? | ?

Further records follow:
Molecule | VACV mCherry inh | VACV Venus inh
CCOc1ccc(-c2noc(CSc3nnc(-c4ccccc4)n3-c3ccccc3)n2)cc1 | -18% | -25%
CCOC(=O)N1CCN(C(=O)CCNS(=O)(=O)c2ccc3c(c2)c(=O)n(C)c(=O)n3C)CC1 | i | -10%
COc1ccc([C@H]2C[C@@H](n3cc(C4CC4)nn3)[C@H](O)CN2C(=O)c2cccs2)cc1 | i | -8%
COc1cccc(-c2ncc3ccccc3c2COC(=O)c2cccc(Br)c2)c1 | -15% | -18%
CCOCCCN1CN(Cc2ccco2)CNC1=S | -6% | -4%
CCOC(=O)c1ccc2nc(C)c(CC)c(Cl)c2c1 | -2% | -21%
CCOc1ccc(S(=O)(=O)Nc2cccc(C(=O)NCC(c3ccco3)N(C)C)c2)cc1 (configuration not stated) | -3% | -19%
Cn1c(C(O)c2ccccc2)nc(Cl)c1Cl (configuration not stated) | -2% | -11%
COc1cc(/C=C2\SC(=O)N(c3ccc(Cl)cc3)C2=O)cc([N+](=O)[O-])c1O | i | -2%
CN(C)c1ccc(-c2ccc3ncnc(N4CCNCC4)c3c2)cc1 | -25% | -14%
CCOC(=O)/C(=N/Nc1ccccc1)N1CCCc2ccccc21 | -10% | -14%
CC(C)(C)n1ncc2c(=O)n(Cc3ccc(Cl)c(Cl)c3)cnc21 | -3% | -9%
Cc1cc(NC(=O)c2cc(-c3cccnc3)nc3c(C)c(C)ccc23)no1 | . | -7%
O=C(Nc1ccccc1C(=O)Nc1ccccc1C(=O)NCc1ccco1)c1ccco1 | i | -7%
NC(=O)c1cc(S(=O)(=O)N2CCN(c3cccc(C(F)(F)F)c3)CC2)cs1 | -9% | -7%
CCCCc1ccc(NC(=O)CC(C)(C)C)cc1 | -17% | -10%
CCc1nnc(NC(=O)CSc2nc(-c3ccccc3)nc3ccccc23)s1 | -8% | -2%
Cc1cc(Br)ccc1NC(=O)CSc1nnc(CN2CCOCC2)n1C | -2% | -3%
Cc1ccccc1N(C(=O)CNC(=O)c1ccco1)C(C(=O)NC1CCCCC1)c1cccnc1 (configuration not stated) | -13% | 2%
C/C(=C\C(=O)c1ccc(Br)cc1)NNC(=O)c1ccccc1 | -12% | -13%
CC1(C)C(C=C(Cl)Cl)C1C(=O)N(Cc1cccc(Cl)c1)C1CCS(=O)(=O)C1 (configuration not stated) | i | -15%
NC(=O)NC(=O)CSc1nc(C2CCCCC2)n(-c2ccccc2)n1 | -15% | -6%
Cc1cccc(N2CCN(C(=O)Cn3ccc4ccccc4c3=O)CC2)c1C | -24% | -26%
Cc1cccc(NC(=S)NC(C)(C)CC(C)(C)C)c1 | -25% | -16%
COc1cccc(NC(=O)N2CCCC2C(=O)Nc2ccc3c(c2)OCO3)c1 (configuration not stated) | -20% | -16%
Nc1c([N+](=O)[O-])c(=O)oc2ccccc12 | i | -7%
COc1ccc(C(=O)N2CCCCCC2)cc1OC1CCN(C(C)=O)CC1 | -15% | -4%
C[C@@H]1CN([C@H](C)CO)S(=O)(=O)c2ccc(Br)cc2O[C@H]1CN(C)C(=O)C1CC1 | i | -2%
N#Cc1ccc(-c2ccc(OCC(=O)NCCCN3CCCC3=O)cc2)cc1 | i | -5%
CSc1nc2c(C)c(C)c(C)c(C)c2[nH]1 | -11% | -12%
COc1cc2c(C(=O)NCc3ccc(C)o3)cn(CC(C)C)c(=O)c2cc1OC | -20% | -9%
O=C1N/C(=N\N=C\c2cccs2)SC1Cc1ccc(Cl)c(Cl)c1 (configuration not stated) | i | -21%

Compound activity: PubChem BioAssay, National Center for Advancing Translational Sciences (NCATS)
